Bioassay records: PubChem, National Center for Advancing Translational Sciences (NCATS)
Cruzain noTriton – blocks cruzain activity in detergent-free assay; P25779; purified cruzain, Z-FR-AMC fluorescence, no detergent; Potency, µM, for the others: max response, negative = inhibition, hits mostly inhibitors; 200,000 compounds, 2.3% hits; active means well fitted curve in the direction sought with a large enough effect; inconclusive means small, poorly fitted or top-dose-only effect, or another doubt; inactive means no such curve, though single readings can be large; an effect the other way counts as inactive or inconclusive;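 further: plate controls were enzyme without inhibitor for no effect and buffer without enzyme for full effect; nearly all actives have a fitted effect of over 40% in size; top concentration of the series not given in the record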
Target sequence (P25779 123-467 limits assumed): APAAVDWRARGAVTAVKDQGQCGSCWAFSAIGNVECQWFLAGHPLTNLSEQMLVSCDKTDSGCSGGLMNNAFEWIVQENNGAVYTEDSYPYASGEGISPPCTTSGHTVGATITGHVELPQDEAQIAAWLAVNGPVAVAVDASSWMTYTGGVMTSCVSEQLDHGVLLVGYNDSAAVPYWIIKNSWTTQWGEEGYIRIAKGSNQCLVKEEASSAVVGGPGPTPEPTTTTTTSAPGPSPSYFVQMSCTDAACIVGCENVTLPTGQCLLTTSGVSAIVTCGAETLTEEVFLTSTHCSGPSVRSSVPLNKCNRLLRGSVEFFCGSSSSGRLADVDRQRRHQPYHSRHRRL
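Purified cruzain at 1.5 nM, pre-incubated 15 min with compound at room temperature in 100 mM sodium acetate pH 5.5, 5 mM DTT, 0.00005% Triton X-100. Reaction started with 2 uM Z-FR-AMC; AMC fluorescence increase over 60 s gives rate.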
RE007 growth inh – less growth of the S. pombe RE007 Vpr strain. AID 651644. Potency, µM (highest dose often 92.2 µM), for the others: top-dose activity change, negative = less growth. S. pombe RE007 Vpr strain, BacTiter-Glo ATP luminescence, 24 h; control for the full effect not named in the record. 360,000 compounds, 0.21% hits; active = well fitted falling curve with a large enough effect; inconclusive = small, poorly fitted or top-dose-only effect; inactive = no such curve, though single readings can be large or run the other way;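 further: on the % scale 0 is the no-effect control and ±100 the full control effect; nearly all actives have a fitted effect of over 50% in size; the assay follows cell death caused by Vpr and the record does not say whether a fall means rescue or toxicity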
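Fission yeast strain RE007, carrying one chromosomally integrated HIV-1 vpr copy, was seeded at OD 0.01 in PMG+AL medium with 23 nL pinned compound. After 24 h at 30 °C and 99% humidity, viability was read by BacTiter-Glo luminescence.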
Lassa entry inh – Lassa virus entry inhibition; Lassa virus pseudotype entry inhibition, cell reporter; control for the full effect not named in the record; Potency, µM (series often up to 37.9 µM), for the others: top-dose activity change, negative = inhibition, hits mostly inhibitors; 300,000 compounds, 1.2% hits; AID 540256; active means well fitted inhibition curve with a large enough effect; inconclusive means small, poorly fitted or top-dose-only effect, or effect the other way; inactive means flat fitted curve, though single readings scatter; tested in HEK293 cells; further: on the % scale 0 is the no-effect control and ±100 the full control effect; nearly all actives have a fitted effect of over 50% in size; luciferase read-out
StopGo reporter – lowers the luciferase signal of an FMDV 2A StopGo reporter. human cells with a luciferase reporter of 2A StopGo recoding; control for the full effect not named in the record. Potency, µM (doses to about 57.9 µM), inactives show top-dose signal change, negative = less light. 410,000 compounds, 1.2% hits. AID 1159524; active = well fitted falling curve with a large enough effect; inconclusive = small, poorly fitted or top-dose-only effect; inactive = no such curve, though single readings can be large or run the other way; tested in HEK293T cells; further: on the % scale 0 is the no-effect control and ±100 the full control effect; nearly all actives have a fitted effect of over 45% in size; luciferase light after 4 h
Marburg entry inh – blocks Marburg virus binding to or entry into cells | Marburg virus pseudotyped entry inhibition, cell reporter; control for the full effect not named in the record; about a third of the inactives were read at about 46 µM | Potency, µM (series often up to 37.8 µM), for inactives: at the highest dose activity change, negative = inhibition, actives largely listed as inhibitors | 300,000 compounds, 1.8% hits | AID 540276; active = well fitted inhibition curve with a large enough effect; inconclusive = small, poorly fitted or top-dose-only effect, or effect the other way; inactive = flat fitted curve, though single readings scatter; tested in HEK293 cells; about a fifth of its hits are not listed in these tables; further: on the % scale 0 is the no-effect control and ±100 the full control effect; luciferase read-out
NS1 inh – inhibitors of influenza NS1 protein function | S. cerevisiae slowed by influenza A NS1, growth recovery by OD600 | Potency, µM (top dose mostly 46.1 µM), for the others: top-dose activity, positive = more growth | 270,000 compounds, 0.4% hits; further: actives are rising curves; nearly all actives have a fitted effect of over 50% in size
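OD600 was taken as the measure of yeast growth restored by compound in an NS1-expressing S. cerevisiae strain. Cells had been washed out of glucose medium and diluted 1:100 into galactose -URA medium, pH 6.0.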
Cruzain Triton – cruzain (T. cruzi) inhibition with detergent. 200,000 compounds, 0.43% hits. purified cruzain, Z-FR-AMC fluorescence, 0.01% Triton. Potency, µM, for the others: max response, negative = inhibition, actives largely listed as inhibitors. AID 1478. P25779; active means well fitted curve in the direction sought with a large enough effect; inconclusive means small, poorly fitted or top-dose-only effect, or another doubt; inactive means no such curve, though single readings can be large; an effect the other way counts as inactive or inconclusive;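 further: plate controls were neutral wells for no effect and buffer without enzyme for full effect; nearly all actives have a fitted effect of over 40% in size; top concentration of the series not given in the record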
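In this qHTS format, compounds are incubated with 1.5 nM cruzain for 15 min at room temperature before 2 uM Z-FR-AMC is added. Release of AMC is followed at 360/450 nm, and progress is taken as the 60 s fluorescence difference.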
SARS PLpro yeast – blocks SARS-CoV papain-like protease in a yeast assay; S. cerevisiae expressing SARS-CoV PLpro, growth rescue; control for the full effect not named in the record; Potency, µM (top dose mostly 32.9 µM), inactives show at the highest dose activity, positive = growth rescue; 330,000 compounds, 0.19% hits; AID 485353; further: 0% is about no effect; nearly all actives have a fitted effect of over 55% in size; growth read by luminescence after 48 h
Numbers without * were called inactive; ? = inconclusive; . = no result given; & = joins results of further samples; [ ] = remark or other dose. Unless noted, the call rests on the fitted dose curve; in most records, active means well fitted rising curve with a large enough effect; inconclusive means small, poorly fitted or top-dose-only effect; inactive means no such curve, though single readings can be large or run the other way. Potency means the concentration at half of the fitted maximal effect. Outcome played no part in choosing rows. About 4.8% of those tested had a hit in this group.

SMILES	Cruzain noTriton	RE007 growth inh	Lassa entry inh	StopGo reporter	Marburg entry inh	NS1 inh	Cruzain Triton	SARS PLpro yeast
CNC(=S)N1CCn2cccc2C1c1cc(OC)c(OC)c(OC)c1 (stereo not drawn)	.	-8%	-13%	6%	?	.	.	2%
COc1cccc(NC(=O)CSc2nc3c([nH]c4ccccc43)c(=O)n2C)c1	.	1%	?	58%[activator]	?	1%	.	0%
COc1ccc(C(=O)Nc2nccs2)cc1OC	-5%	-2%	17%	50%[activator]	9%	-11%	-4.3%	6%
C=CCNCCCCOc1ccccc1	2%	0%	10%	-21%	-2%	1%	-1.0%	?
N#Cc1cc(-c2ccc(Cl)cc2)cnc1Sc1ccccc1	-10%	2%	-23%	7%	7%	13%	-2.3%	?
COc1ccc(NC(=O)CCNC(=O)c2ccco2)cc1Cl	.	-11%	7%[46.1 µM]	15%	5%[46.1 µM]	-5%	.	4%
CS(=O)(=O)c1ccccc1C(=O)Nc1ccc(-c2nc3ccccc3[nH]2)cc1	.	1%	.	39%[activator]	.	-14%	.	5%
CCN(CC)C(=O)Cn1cc(C(=O)C(=O)N2CCCc3ccccc32)c2ccccc21	.	-17%	0%[46.1 µM]	9%	?	.	.	0%
O=S(=O)(NCc1cccnc1)c1cc(Cl)ccc1Cl	5%	-3%	?	0%	15%	-6%	2.5%	2%
Cc1ccc(C)c(NC(=S)NCc2cccs2)c1	6%	6%	-1%	27%	-14%	3%	-1.8%	?
CCOC(=O)CNc1ncnc2nc[nH]c12	-1%	-5%	.	0%	.	-88%	2.5%	6%
COc1ccc(NC(C)=O)cc1NS(=O)(=O)c1cn(C)c(=O)n(C)c1=O	.	2%	.	-20%	.	3%	.	-1%
CCOC(=O)c1ccc(NS(=O)(=O)N2CCCCCC2)cc1	-10%	-8%	?	16%	20%	-30%	-8.8%	-15%
CC(=O)NNC(=O)CCn1nnc2ccccc21	.	?	?	3%	13%[46.1 µM]	3%	.	1%
Cc1ccc(NC(=O)CSC2=C(C#N)C(c3ccc4c(c3)OCO4)C3=C(CCCC3=O)N2)c(C)c1 (stereo not drawn)	-18%	-4%	?	-18%	-27%&-27%	?	-6.0%	6%
Nc1ccccc1-c1nnc(SCc2ccccc2Cl)[nH]c1=O	-12%	-16%	-8%	15%	16%	-71%	-1.3%	-34%
Cc1cccc(NC(=O)CSc2nc(=O)n(CCN3CCOCC3)c3c2CCC3)c1C	9%	.	-3%[46.1 µM]	-16%	.	.	-2.0%	.
COCc1cc(C)nc(SCC(=O)Nc2ccccc2C)c1C#N	0%	-24%	-1%	-4%	0%	-7%	4.4%	1%
O=C(NN=C1CCCCCCC1)c1ccc(F)cc1	.	9%	11%	11%	?	-2%	.	-2%
COc1ccc(C(=O)CC(=O)C(=O)Nc2cccc(F)c2)cc1	.	-23%	-21%[46.1 µM]	-16%	11%[46.1 µM]	-66%	.	-2%
Cc1ccc(-c2cccc(C3CC=CC4C3C(=O)N(Cc3ccccc3)C4c3cc(C)ccc3F)c2)cc1 (stereo not drawn)	.	1%	.	-29%	.	-1%	.	1%
CCC(OC(=O)c1cc2sccc2n1C)C(=O)NCC1CCCO1 (stereo not drawn)	2%	8%	-6%	.	-12%	-11%	-2.9%	-2%
Nc1cc(N)nc(SCCOc2ccccc2)n1	-1%	1%	15%	.	16%	-134%	-4.3%	-34%
CC(=O)N1CCN(Cc2nc3cc(NC(=O)c4ccccc4)ccc3n2C)CC1	-4%	-8%	15%	-8%	18%	5%	1.9%	-2%
Cc1ccc(OCc2nnc(SCC(=O)O)n2N)cc1	1%	5%	14%	.	25%	20%	9.2%	10%
Cc1ccc(-n2c(O)c(/C=N/NC(=O)c3ccncc3)c(=O)[nH]c2=O)cc1C	-4%	-9%	2%	-8%	26%	-12%	-6.0%	-15%
O=C(c1ccccc1)c1ccc(C(=O)N2CCOCC2)cc1	9%	4%	3%	10%	3%	-5%	-0.9%	1%
O=C(NCC(=O)N(c1ccc(F)cc1)C(C(=O)NC1CCCC1)c1cccnc1)c1cccs1 (stereo not drawn)	.	-3%	-8%[46.1 µM]	4%	2%[46.1 µM]	1%	.	-1%
CN(C(=O)COc1ccccc1)c1nnc(C23CC4CC(CC(C4)C2)C3)s1	2%	-13%	10%	-13%	8%	3%	-6.2%	8%
CN(CC(=O)Nc1ccc(N2CCOCC2)cc1)C(=O)Cc1ccccc1	.	-5%	5%	4%	-1%	.	.	-1%
Cc1ccc(-c2cn(S(=O)(=O)c3cccc([N+](=O)[O-])c3)nc2N)cc1	.	6%	0%	-27%	-29%[46.1 µM]	1%	.	1%
CCCC(=O)c1ccc(N2CCN(S(=O)(=O)c3ccccc3)CC2)c(F)c1	4%	8%	3%	-28%	?	-8%	1.0%	-1%
O=C(CN(Cc1ccccc1F)C(=O)c1csnn1)NC1CCCCC1	.	8%	8%	-7%	4%[46.1 µM]	-5%	.	1%
CCOc1ccccc1NC(=O)c1ccc2c(c1)C(=O)N(C(C)(C)C)C2=O	.	-7%	20%	-15%	0%	-5%	.	1%
COc1ccccc1NC(=O)c1oc2ccccc2c1NC(=O)C1CC1	.	-2%	.	-17%	.	-2%	.	7%
C(=C\c1ccccc1)/C=N/Nc1nc(N2CCCCC2)nc(N2CCCCC2)n1	4µM*	-3%	1%	-16%	-4%	4%	1.5%	-5%

Reprinted from the part before: 3 compounds, followed by the next part.
SMILES	Cruzain noTriton	RE007 growth inh	Lassa entry inh	StopGo reporter	Marburg entry inh	NS1 inh	Cruzain Triton	SARS PLpro yeast
CCOc1ccccc1NC(=O)c1ccc2c(c1)C(=O)N(C(C)(C)C)C2=O	.	-7%	20%	-15%	0%	-5%	.	1%
COc1ccccc1NC(=O)c1oc2ccccc2c1NC(=O)C1CC1	.	-2%	.	-17%	.	-2%	.	7%
C(=C\c1ccccc1)/C=N/Nc1nc(N2CCCCC2)nc(N2CCCCC2)n1	4µM*	-3%	1%	-16%	-4%	4%	1.5%	-5%
O=C(CCC(=O)NNC(=O)COc1ccccc1)NCc1ccccc1	6%	-12%	-1%	26%	10%	4%	12%	9%
COc1ccc(OCC(=O)Nc2cc(-c3nn4c(C)nnc4s3)ccc2C)cc1	-4%	5%	.	-1%	.	7%	5.6%	-7%
CN1c2ccccc2-c2nc3ccccc3n2C1c1ccncc1 (stereo not drawn)	-4%	-2%	?	-15%	-13%	-93%	-4.8%	26%
Cc1ccc(S(=O)(=O)N(C)c2ccccc2C(=O)NC2CCCC2)cc1	3%	0%	?	8%	-2%	2%	-1.5%	-1%
COc1cc(C)nc(NS(=O)(=O)c2ccc(C)cc2)n1	-13%	-19%	-2%	74%[activator]	?	8%	8.3%	1%
CN(Cc1ccccc1)S(=O)(=O)c1cccs1	0%	10%	11%	.	14%	-11%	2.7%	4%
COc1ccccc1N(CC(=O)NCCSCc1ccccc1)S(=O)(=O)c1ccc(C)cc1	6%	-13%	?	35µM*	?	1%	-3.7%	-3%
CCOc1ccc(NC(=O)c2ccc(OCC3CCCO3)cc2)cc1S(=O)(=O)N(CC)CC (stereo not drawn)	.	-4%	-2%	?	-39%	.	.	-4%
CN(Cc1ccc(OC(F)F)cc1)C(=O)c1ccc2nccnc2c1	-4%	15%	0%	9%	0%	-6%	-3.4%	7%
COc1cc2c3c(c1OC)C1(C=CC(=O)C=C1)CC3N(C(=O)c1ccccc1)CC2 (stereo not drawn)	1%	1%	-18%[14.3 µM]	-20%	-22%	-1%	5.9%	-2%
Cc1ccc(S(=O)(=O)N2CCC(C)CC2)cc1C(=O)NCCN1CCOCC1	.	8%	7%	-4%	7%	6%	.	1%
CC1CCN(C(=O)CSc2nnc(-c3cccs3)o2)CC1	.	-6%	.	63%[activator]	?	8%	.	-1%

Overlap with the part before: 2 entries, followed by the next part.
SMILES	Cruzain noTriton	RE007 growth inh	Lassa entry inh	StopGo reporter	Marburg entry inh	NS1 inh	Cruzain Triton	SARS PLpro yeast
Cc1ccc(S(=O)(=O)N2CCC(C)CC2)cc1C(=O)NCCN1CCOCC1	.	8%	7%	-4%	7%	6%	.	1%
CC1CCN(C(=O)CSc2nnc(-c3cccs3)o2)CC1	.	-6%	.	63%[activator]	?	8%	.	-1%
Cc1cccc(NC(=O)CCc2ccc(S(=O)(=O)NC3CCCCC3)cc2)c1	-1%	6%	-11%	-9%	13%	7%	-3.8%	12%
COc1ccc(NS(=O)(=O)c2cccc(C(=O)OCC(=O)c3c(N)n(C)c(=O)n(C)c3=O)c2)cc1	.	2%	?	12%	-3%	.	.	0%
CCN1CCN(c2nc(Nc3ccccc3F)nc(N)c2[N+](=O)[O-])CC1	.	25%	.	3%	.	4%	.	-5%
Cc1cc(Cl)cc(Br)c1OCCNCC(C)O (stereo not drawn)	4%	4%	8%	-10%	0%	4%	-2.2%	0%
Cc1sc(-n2cccc2)c(C(C)NC(=O)Nc2ccccc2Cl)c1C (stereo not drawn)	?	.	.	3%	?	.	-7.2%	.
COc1ccc(C(=O)NC2CCCc3c2cnn3-c2cccc(C)c2C)o1 (stereo not drawn)	.	5%	.	-8%	.	-12%	.	-6%
O=C(NCc1ccccc1C(F)(F)F)C1CCC(=O)N(CCCc2ccccc2)C1 (stereo not drawn)	.	4%	?	-20%	?	-2%	.	0%
CC(=O)NC(Cc1cccc(C)c1)C(=O)NC1CCN(C(=O)c2ccc([N+](=O)[O-])cc2)CC1 (stereo not drawn)	9%	-4%	-6%	17%	-1%	9%	-0.5%	13%
